RE007 growth inh: less growth of the S. pombe RE007 Vpr strain; Potency, µM (titrated, usually from 92.2 µM), inactives show at the highest dose activity change, negative = less growth; 360,000 tested, 0.21% active; S. pombe RE007 Vpr strain, BacTiter-Glo ATP luminescence, 24 h; control for the full effect not named in the record; active = well fitted falling curve with a large enough effect; inconclusive = small, poorly fitted or top-dose-only effect; inactive = no such curve, though single readings can be large or run the other way;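 also: % is scaled to controls: 0 for no effect and ±100 for the full control effect; nearly all actives have a fitted effect of over 50% in size; the assay follows cell death caused by Vpr and the record does not say whether a fall means rescue or toxicity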
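Fission yeast strain RE007, carrying one chromosomally integrated HIV-1 vpr copy, was seeded at OD 0.01 in PMG+AL medium with 23 nL pinned compound. After 24 h at 30 °C and 99% humidity, viability was read by BacTiter-Glo luminescence.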
2A StopGo: lowers the luciferase signal of an FMDV 2A StopGo reporter; human cells with a luciferase reporter of 2A StopGo recoding; control for the full effect not named in the record; Potency, µM (top dose mostly 57.9 µM), inactives show at the highest dose signal change, negative = less light; 410,000 tested, 1.2% active; active = well fitted falling curve with a large enough effect; inconclusive = small, poorly fitted or top-dose-only effect; inactive = no such curve, though single readings can be large or run the other way; tested in HEK293T cells; also: % is scaled to controls: 0 for no effect and ±100 for the full control effect; nearly all actives have a fitted effect of over 45% in size; luciferase light after 4 h
SARS PLP yeast: inhibitors of SARS-CoV papain-like protease in yeast; 330,000 tested, 0.19% active; Potency, µM (top dose mostly 32.9 µM), for the others: at the top dose activity, positive = growth rescue; AID 485353; S. cerevisiae expressing SARS-CoV PLpro, growth rescue; control for the full effect not named in the record; active means well fitted rising curve with a large enough effect; inconclusive means small, poorly fitted or top-dose-only effect; inactive means no such curve, though single readings can be large or run the other way; also: 0% is about no effect; nearly all actives have a fitted effect of over 55% in size; growth read by luminescence after 48 h
* hit, by the source's call; ? = inconclusive; [ ] = dose if it differs, or a comment. Potency is read from the fitted curve at half-maximal effect. This is a subset. The share of hits here may be higher or lower than overall.

Values in the order – RE007 growth inh	2A StopGo	SARS PLP yeast
CCN(C[C@H]1N[C@@](CC)(C(=O)OC)[C@H]2C(=O)N(Cc3ccccc3)C(=O)[C@@H]12)S(=O)(=O)c1ccc(-c2ccccc2)cc1
→ 1.7%	-10.1%	2.9%
COc1ccc(CCN2CC(C(=O)Nc3nnc(Cc4ccccc4)s3)CC2=O)cc1OC (stereo not drawn)
→ -2.2%	-14.3%	1.2%
COc1ccc(NC(=O)COC(=O)CCNC(=O)c2ccco2)cc1Cl
→ 0.1%	4.7%	5.7%
CC(C)CN(C(=O)COC(=O)c1ccc(C#N)cc1)C1CCS(=O)(=O)C1 (stereo not drawn)
→ 5.7%	-9.2%	-6.9%
COC(=O)C1=C(c2ccc(OCc3ccccc3)cc2)C[C@@H]2CC[C@H]1N2C(=O)NCCN1CCOCC1
→ -4.3%	-10.1%	-2.3%
COc1ccc2[nH]c3c(c2c1)CCN1C(=O)C(CC(=O)NCCC2=CCCCC2)C[C@H](C(=O)N(C(C)C)C(C)C)[C@@]31C (stereo partly drawn)
→ 15.8%	?	-29.4%
COc1ccc(S(=O)(=O)NC2CCN(Cc3ccccc3)CC2)cc1NC(C)=O
→ -3.8%	1.7%	-1.9%
Cc1ccc(C(=O)Cc2ccccc2)o1
→ -15.2%	-3.9%	-0.1%
O=C(CCSc1ccc(F)cc1)NNC(=O)c1ccc([N+](=O)[O-])cc1
→ -4.9%	-16.0%	4.1%
Cc1cc(C)c(NC(=O)CN(C)C(=O)CNC(=O)c2cccs2)c(C)c1
→ -12.0%	-10.3%	-9.4%
CC(C)(C)OC(=O)C[C@H]1C/C=C\C[C@H](CC(=O)N[C@H](CO)Cc2ccccc2)C(=O)N[C@@H](Cc2ccccc2)COC1=O
→ -19.0%	-18.6%	8.4%
S=C(NCc1ccccc1)N1CCCCC1
→ -9.4%	10.4%	10.3%
Cc1ccc(C(=O)Nc2cccc(C(F)(F)F)c2)cc1NC(=O)c1[nH]cnc1C(N)=O
→ 2.4%	-9.6%	12.0%
O=C(Cn1nnc(-c2ccc(F)cc2)n1)Nc1cccc(S(=O)(=O)N2CCCC2)c1
→ -2.8%	-24.7%	-6.0%
Cc1ccc(S(=O)(=O)NCCNc2ccc(Br)c(C)c2)cc1
→ 4.1%	21.3%	1.9%
C=CCNC(=O)C1CC2Cn3c(nc4cc(Cl)c(Cl)cc43)C2N1C (stereo not drawn)
→ 6.1%	8.5%	?
CC(CCc1ccco1)NC(=O)c1cccc2c1C(=O)N(C1CCCCC1)C2 (stereo not drawn)
→ -11.2%	-20.6%	-7.3%
Cc1ccc(C(=O)N(C)CCOc2ccccc2)cc1S(=O)(=O)N1CCCCC1
→ ?	-20.8%	-4.0%
CCC(C)Sc1ccc([C@H]2N[C@@](C)(C(=O)OC)[C@H]3C(=O)N(CC)C(=O)[C@@H]23)cc1 (stereo partly drawn)
→ 4.0%	0.0%	5.2%
CN(CC(=O)Nc1cccc(F)c1)C(=O)C1(c2ccccc2)CC1
→ -8.6%	-27.9%	9.7%

Part of the list above in order of formula weight, high to low.
Values in the order – RE007 growth inh	2A StopGo	SARS PLP yeast
Cc1ccc(C(=O)Nc2cccc(C(F)(F)F)c2)cc1NC(=O)c1[nH]cnc1C(N)=O
→ 2.4%	-9.6%	12.0%
CCC(C)Sc1ccc([C@H]2N[C@@](C)(C(=O)OC)[C@H]3C(=O)N(CC)C(=O)[C@@H]23)cc1 (stereo partly drawn)
→ 4.0%	0.0%	5.2%
C=CCNC(=O)C1CC2Cn3c(nc4cc(Cl)c(Cl)cc43)C2N1C (stereo not drawn)
→ 6.1%	8.5%	?

Later entries:
Values in the order – RE007 growth inh	2A StopGo	SARS PLP yeast
O=C(COC(=O)COc1ccc(Br)cc1)NCc1ccccc1
→ 0.0%	-5.7%	0.1%[6.58 µM]
OC[C@@H](O)[C@@H](O)[C@H](O)[C@@H](O)CO
→ -0.4%	-9.5%	-2.5%
Cc1ccc(C(=O)OCC(=O)NCCc2ccc(F)cc2)cc1S(=O)(=O)N1CCOCC1
→ 2.1%	-11.3%	1.2%
COc1cc(OC)cc(C(=O)NCC(=O)OCC(=O)N2CC(C)CC(C)C2)c1 (stereo not drawn)
→ -2.7%	-6.3%	-0.6%
COc1ccc(NC(=O)c2c[nH]n3c(=O)cc(C4CCN(C(=O)OC(C)(C)C)CC4)nc23)cc1Cl
→ 11.5%	-22.7%	2.4%
Cc1cc(SCC(=O)Nc2cccc(S(N)(=O)=O)c2)c(C)cc1Br
→ -2.0%	-27.7%	2.0%
O=C(NC1CCCc2ccccc21)c1cccc(S(=O)(=O)N2CCOCC2)c1 (stereo not drawn)
→ 5.9%	16.4%	0.5%
C#CCOCCOCCOCCNc1nc(N2CCOCC2)nc(N2CCN(C(=O)[C@H](CO)n3cc([C@@H](N)C(C)C)nn3)CC2)n1
→ -1.5%	-14.5%	1.9%
COc1ccccc1C(CNC(=O)C1CC(=O)N(Cc2ccccc2)C1)N1CCCC1 (stereo not drawn)
→ 6.5%	-14.9%	5.1%
COc1ccc(S(=O)(=O)N2CCCCCC2)cc1C(=O)NCc1ccc(C)cc1
→ 4.0%	8.5%	-3.1%
COc1cc([C@H]2OC[C@H]3[C@@H]2CO[C@@H]3c2cc(OC)c(O[C@@H]3O[C@H](CO)[C@@H](O)[C@H](O)[C@H]3O)c(OC)c2)cc(OC)c1O[C@H]1O[C@@H](CO)[C@H](O)[C@@H](O)[C@@H]1O
→ -15.3%	-3.6%	3.1%
CSCCC(NC(=O)c1ccco1)C(=O)NCC1CCCO1 (stereo not drawn)
→ 1.2%	-15.6%	4.5%
CC(=O)c1ccc(S(=O)(=O)N(C)CC(=O)Nc2ccc(C)cc2)cc1
→ 7.2%	-2.4%	5.4%
Cc1ccc(NC(=O)C2COc3ccccc3O2)cc1S(=O)(=O)N1CCOCC1 (stereo not drawn)
→ -10.3%	5.3%	-4.7%
CC1=CC(=O)O[C@@H]1[C@@]1(C)C[C@H]2OC(=O)C[C@H]3[C@@H](C)C(=O)C(O)=C1[C@@]23CO
→ -4.0%	-15.3%	2.8%
Cc1ccc(NC(=O)COC(=O)c2ccc(S(=O)(=O)N3CCCCC3)cc2)cc1
→ -14.5%	-13.2%	-1.6%
Cc1ccc(C)c(NC(=O)COC(=O)c2ccc3ccccc3n2)c1
→ 7.0%	-13.1%	-8.1%
Nc1c(C(=O)CSc2nc3ccccc3o2)c(=O)[nH]c(=O)n1C1CC1
→ 2.5%	1.5%	-4.2%
Cc1ccc(C(=O)CCC(=O)OCC(=O)Nc2ccccc2SCC#N)cc1
→ -1.9%	5.1%	-8.6%
COc1ccccc1CNC(=O)CSc1ccc(-c2ccccn2)nn1
→ 8.6%	47.4%[activator]	?
CC(=O)c1cccc(S(=O)(=O)Nc2cc(C(F)(F)F)ccc2N2CCOCC2)c1
→ 15.4%	21.0%	-1.6%
Cc1cc(C)c(C)c(S(=O)(=O)N2CCN(C(=O)c3ccccn3)CC2)c1C
→ 1.7%	-5.0%	-6.6%
O=S(=O)(c1ccc(F)cc1)N1CCN(C(=S)NC2CC2)CC1
→ -15.2%	-6.6%	-1.4%
Cc1ccc(C(=O)N(C)CC(=O)Nc2ccc(Cl)c(C(F)(F)F)c2)cc1S(=O)(=O)N1CCCCC1
→ 13.3%	?	0.3%
CCCCNc1c(-c2ccc(SC(C)CC)cc2)nc2cnccn12 (stereo not drawn)
→ ?	?	9.2%
CC(C(=O)N1CCCC1)N(C)CC(=O)Nc1cccc(F)c1 (stereo not drawn)
→ -13.7%	-6.9%	0.2%
O=C(NCC(c1ccccc1Cl)N1CCCC1)C1CCN(C(=O)Nc2ccccc2)CC1 (stereo not drawn)
→ -4.5%	1.9%	10.1%
C[C@@H](NC(=O)Cn1cnc2c(OCc3ccccc3)ncnc21)c1cccc2ccccc12
→ 6.0%	-21.5%	0.3%
COc1ccc(NC(=O)COC(=O)c2ccc3c(c2)OCCO3)cc1OC
→ -6.1%	-29.6%	0.2%
O=C(COC(=O)c1ccccc1O)NC1CCCc2ccccc21 (stereo not drawn)
→ 0.4%	-7.9%	0.2%
O=C(CCN1C(=O)S/C(=C\c2cccs2)C1=O)Nc1nccs1
→ -12.5%	10.8%	-0.3%
C[C@@]12C(=O)N(Cc3ccccc3)CC(=O)N1[C@H]1c3ccccc3OC[C@@H]1[C@@H]2c1ccccc1
→ -10.7%	-27.0%	3.1%
NS(=O)(=O)c1cc(C(=O)OCC(=O)Nc2ccc3[nH]c(=O)[nH]c3c2)ccc1Cl
→ 4.9%	-5.1%	3.2%
c1ccc(NC2=NCCN2CC2CCCCC2)cc1
→ 8.6%	-6.3%	1.0%
O=C(COC(=O)/C=C/c1ccccc1)Nc1ccc2c(c1)OCCO2
→ -7.6%	-6.1%	1.2%
COc1ccc(C(=O)NC(C(=O)OCC(=O)Nc2sccc2C(N)=O)C(C)C)cc1 (stereo not drawn)
→ 3.8%	0.0%	5.2%
COc1cc(NC(=O)CSc2nc3[nH]c(=O)cc(O)c3s2)cc(OC)c1OC
→ -6.9%	0.2%	5.7%
COc1ncc(C2=CC(=O)CC(C)(C)C2)cn1
→ 10.7%	-8.2%	2.0%
CN(C)S(=O)(=O)c1cccc(NC(=O)c2cccc(S(=O)(=O)N3CCc4ccccc43)c2)c1
→ -4.1%	?	6.3%
Cc1cc(=O)oc2cc(NC(=O)COc3cccc(C(F)(F)F)c3)ccc12
→ 0.9%	-13.5%	-1.3%
CCCN(C(=O)CSc1nnc2ccccn12)C1CCS(=O)(=O)C1 (stereo not drawn)
→ -8.9%	-14.1%	-16.4%
CCN(C(=O)COc1cccc2cccnc12)C1CCS(=O)(=O)C1 (stereo not drawn)
→ -1.9%	-0.5%	4.2%
CCC/C(=N/NC(=O)c1ccccc1Cl)c1ccccc1
→ 15.5%	9.8%	-1.7%
CN(C(=O)c1cccc(NC(=O)C2CCCN(C(=O)OC(C)(C)C)C2)c1)C1CCC1 (stereo not drawn)
→ 0.0%	?	5.9%
NC(=O)c1ccc(Cn2c(C(=O)c3cc(Cl)c(N)c(Cl)c3)c3ccccc3[n+]2[O-])cc1
→ 2.1%	-5.8%	-0.6%
C[C@H](CO)N1C[C@H](C)[C@@H](CN(C)C(=O)NC2CCCCC2)Oc2c(NS(=O)(=O)c3cccs3)cccc2C1=O
→ 2.0%	104.0%[activator]	-20.0%
NS(=O)(=O)c1ccc(NC(=O)/C=C/c2ccco2)cc1
→ -10.5%	6.7%	-0.4%
O=S(=O)(c1ccc2c(c1)CCN2)N1CCCC1
→ 4.3%	0.7%	-11.7%
CN(Cc1ccccc1)C(=O)c1nc[nH]c1C(=O)N1CCN(C(=O)OC(C)(C)C)CC1
→ 19.1%	-7.6%	-3.3%
COc1ccc(CCC(=O)OCC(=O)Nc2sccc2C(N)=O)cc1OC
→ -4.1%	?	10.1%

(cont.)
Values in the order – RE007 growth inh	2A StopGo	SARS PLP yeast
O=S1(=O)CCOC(CO)CN1Cc1ccc(Cl)c(Cl)c1 (stereo not drawn)
→ -9.0%	0.0%	25.2%
O=C(N/N=C/c1cn(-c2ccccc2)nc1-c1cccnc1)c1ccc(F)cc1
→ 1.7%	?	9.0%
O=C1CN(C(=O)CSc2nnnn2C2CC2)c2ccccc2N1
→ 7.8%	-14.9%	1.4%
Fc1ccc(/C=N/Nc2nn[nH]n2)cc1
→ -12.1%	-8.5%	-1.2%
Cc1c(C(=O)Nc2ccc(S(=O)(=O)Nc3ncccn3)cc2)oc2ccccc12
→ -3.0%	-15.8%	-7.7%
C#CCOCCOCCOCCNc1nc(N2CCN(C(=O)[C@H](CCCN=C(N)N)n3cc(C(N)[C@@H](C)CC)nn3)CC2)nc(N2CCN(C(=O)[C@H](CCCCN)n3cc([C@@H](N)CC(N)=O)nn3)CC2)n1 (stereo partly drawn)
→ -1.8%	-10.4%	1.2%
Fc1c(F)c(F)c(SCn2cc(Br)cn2)c(F)c1F
→ -11.0%	-8.2%	1.1%
FC(F)(F)c1cc(-c2ccccc2)nc(-n2cc(Cl)cn2)n1
→ 2.1%	?	-0.2%
O=C(CCc1nc2ccccc2s1)NCc1ccccc1F
→ -12.7%	41.4%[activator]	-2.2%
CCCS(=O)(=O)c1c(S(=O)(=O)CCC)c2c(C(N)=O)cccn2c1C(=O)c1ccc(F)cc1
→ -8.1%	-2.1%	4.9%

In another format: 4 of the compounds above.
Cc1c(C(=O)Nc2ccc(S(=O)(=O)Nc3ncccn3)cc2)oc2ccccc12
  RE007 growth inh = -3.0%
  2A StopGo = -15.8%
  SARS PLP yeast = -7.7%

O=C(CCc1nc2ccccc2s1)NCc1ccccc1F
  RE007 growth inh = -12.7%
  2A StopGo = 41.4%[activator]
  SARS PLP yeast = -2.2%

Fc1c(F)c(F)c(SCn2cc(Br)cn2)c(F)c1F
  RE007 growth inh = -11.0%
  2A StopGo = -8.2%
  SARS PLP yeast = 1.1%

O=C(N/N=C/c1cn(-c2ccccc2)nc1-c1cccnc1)c1ccc(F)cc1
  RE007 growth inh = 1.7%
  2A StopGo = ?
  SARS PLP yeast = 9.0%

Screening results (PubChem)
